UCH37 inh: blocks the human deubiquitinase UCH37; Q9Y5K5; purified proteasome/UCH37, Ub-AMC cleavage fluorescence; inhibition, % (concentration not given with the values); 330,000 tested, 0.33% active; AID 588478;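 active = mean of two replicates above 20%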;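 note: 0% = compound-free wells with enzyme and 100% = wells lacking proteasome; stock transfer was 100 nL into about 20 µL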
Target sequence (Q9Y5K5 whole entry, looked up): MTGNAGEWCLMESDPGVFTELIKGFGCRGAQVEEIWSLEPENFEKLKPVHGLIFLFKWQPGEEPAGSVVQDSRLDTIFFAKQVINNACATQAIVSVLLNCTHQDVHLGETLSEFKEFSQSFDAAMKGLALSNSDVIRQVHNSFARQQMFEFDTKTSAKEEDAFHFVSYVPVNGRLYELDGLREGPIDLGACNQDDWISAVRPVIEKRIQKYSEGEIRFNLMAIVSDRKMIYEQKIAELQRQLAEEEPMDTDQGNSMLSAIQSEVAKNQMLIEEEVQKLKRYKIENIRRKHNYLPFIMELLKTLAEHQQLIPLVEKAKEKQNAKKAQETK
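system = Proteasome-associated human UCH37 deubiquitinase | amount = 0.15 nM proteasome as dispensed | medium = pH 7.4 Tris-HCl (50 mM) with ovalbumin, ATP-MgCl2, DTT | incubation = 30 min preincubation with enzyme, 25 min cleavage at room temperature | detection = AMC fluorescence 355/460 nm | read-out basis = percent inhibition | controls = no-proteasome and no-compound wells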
RanGTP-Impb inh: inhibitors of RanGTP-importin-beta interaction, primary screen, biochemical, FRET, CFP-Ran, YFP-importin-beta, homogeneous; 300,000 tested, 1.1% active; inhibition, % (test concentration not listed); cell-free CFP-Ran/YFP-importin-beta FRET ratio;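 active = most replicates above 15%; inconclusive = exactly half above 15%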;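 note: 0% = DMSO wells and 100% = Ran loaded with GDP instead of GTP; wells of about 40 µL received 100 nL stock; the first replicate is given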
Calb FLC: C. albicans growth modulation with fluconazole; C. albicans CaCi-2 (fluconazole-resistant clinical isolate) + fluconazole, Alamar Blue growth, 48 h; growth inhibition, % (no concentration beside the values); 300,000 tested, 0.57% active; AID 1979;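 active = most replicates above 75%; inconclusive = exactly half above 75%; inactive = most below 75%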;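 note: all wells also contain fluconazole at 8 µg/ml as a sub-toxic cotreatment; 0% = median of DMSO wells and 100% = median of geldanamycin control wells; wells of about 8 µL received 7.5 nL stock; the first replicate is given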
Bfl-1 A1 inh: inhibitors of the anti-apoptotic protein A1, read as caspase activation; caspase activation, % (no concentration beside the values); MEF A1-2A-BIM cells, Caspase-Glo 3/7 luminescence, 3 h; percent of clofoctol response, vehicle zero; AID 2462; 330,000 tested, 0.066% active;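 active = over half of replicate activation scores above 10%, or exactly half above 10 with the replicate mean above 10; inconclusive = replicate mean below 10 yet half the replicates above 10; inactive = over half of replicates below 10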;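 note: wells of about 30 µL received 50 nL stock; many hits fall short of the cut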
LANA-H2B inh: blocks KSHV LANA binding to histone H2A/H2B; cell-free LANA-H2A/H2B peptide, fluorescence polarization; AID 2629; 320,000 tested, 0.6% active; Q9QR71; inhibition, % (test concentration not listed); in the data active = inhibition mostly above about 10%, no sharp cut-off; inactive = mostly below about 6.7%;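 note: stock transfer was 7.5 nL into about 10 µL; 0% = median of vehicle wells and 100% = median of positive control wells; one replicate is shown; the record names a cut of 25% in any replicate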
Beta cell apopt: blocks beta cell apoptosis. INS-1E cytokine-induced death, ATP luminescence, 48 h; percent of positive-control rescue, neutral wells zero. protection from apoptosis, % (no concentration beside the values). 300,000 tested, 0.8% active;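 active = all replicates at 75% or more, or half of them and the mean; inconclusive = half reach 75% but not the mean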;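 note: 0% = cytokine-treated negative control wells and 100% = positive control rescue; higher means more ATP so stronger rescue from cytokine killing; wells of about 40 µL received 100 nL stock; the first replicate is given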
T cruzi repl: T. cruzi replication inhibition; inhibition, % (concentration not given with the values); 300,000 tested, 1.4% active; T. cruzi beta-gal in NIH3T3, luminescence, 90 h;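 active = mean inhibition across valid replicates above about 55%, limit read from the data; inconclusive = mean below that limit but half or more replicates reach it; inactive = mean below it, under half of replicates reach it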;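 note: signal also drops with host cell toxicity which is not excluded here; 0% = plate median of DMSO wells and 100% = zero luminescence signal; higher percent means less beta-gal luminescence so fewer parasites; stock transfer was 50 nL into about 50 µL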
B2AR ag: agonists of human beta-2 adrenergic receptor inducing internalization | 340,000 tested, 0.43% active | response, % (test concentration not listed) | P07550 | Am2.2-beta2AR cells, FAP receptor internalization, flow cytometry; reference of the scale not given here | AID 504454;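 active = response above a set limit, near 3 SD of response in nonfluorescent compounds, cut at about 42% in these data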;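 note: stock transfer was 100 nL into about 11 µL; a reference agonist was the positive control; negative values mostly stem from fluorescent compounds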
Target sequence (P07550 whole entry, looked up): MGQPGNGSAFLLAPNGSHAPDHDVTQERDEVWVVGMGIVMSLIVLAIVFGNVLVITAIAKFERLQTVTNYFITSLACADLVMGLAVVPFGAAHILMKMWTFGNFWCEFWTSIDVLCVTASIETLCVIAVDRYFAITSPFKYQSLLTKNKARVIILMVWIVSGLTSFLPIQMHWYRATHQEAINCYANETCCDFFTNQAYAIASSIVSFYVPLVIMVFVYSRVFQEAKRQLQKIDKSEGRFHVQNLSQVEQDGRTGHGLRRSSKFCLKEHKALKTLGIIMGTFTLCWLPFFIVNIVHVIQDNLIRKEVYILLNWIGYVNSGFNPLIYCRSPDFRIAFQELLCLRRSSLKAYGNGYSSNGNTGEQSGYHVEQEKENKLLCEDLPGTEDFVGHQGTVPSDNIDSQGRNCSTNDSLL
The depositor's hits bear a star; ? = inconclusive; . = not tested or not shown.

SMILES | UCH37 inh | RanGTP-Impb inh | Calb FLC | Bfl-1 A1 inh | LANA-H2B inh | Beta cell apopt | T cruzi repl | B2AR ag
Cc1nn(CCO)c2ncc(C(=O)c3cc(Cl)ccc3O)cc12 | 2.2 | 5.6 | 3.1 | -0.5 | -4.6 | 4.9 | -7.0 | -3.0
CCc1noc(C)c1C(=O)NC1CC(C)(C)Cc2c1cnn2-c1ccccc1 (stereo unspecified) | . | -2.8 | -7.7 | 0.2 | -7.8 | . | 7.3 | -3.0
Cc1cc(N2CCOCC2)nc(NCc2ccccc2)n1 | 4.0 | -2.7 | -4.4 | 0.5 | -4.4 | 57.8 | 12.9 | -27.5
CC(C)(C)c1ccc(C(=O)O)c(C(=O)c2ccc(C(=O)O)cc2)c1 | 1.6 | 0.3 | 3.1 | 0.5 | 6.5 | -5.0 | -3.0 | 2.8
CCS(=O)(=O)N1N=C(c2cccs2)CC1c1cc2cc(C)ccc2nc1Cl (stereo unspecified) | 1.1 | ? | 22.7 | 0.3 | -6.7 | 0.2 | 12.8 | -6.5
O=C(Cn1ccc2cc(S(=O)(=O)N3CCCC3)ccc21)NCCc1ccccc1 | 5.4 | 2.4 | -19.3 | 0.1 | 11.6* | 1.7 | -23.6 | 15.1
Cc1ccc(OCCNC(=O)c2cccc(S(=O)(=O)N3CCN(C)CC3)c2)cc1 | 0.6 | . | . | 1.6 | -0.6 | 1.8 | . | -8.3
CN(C)CC1CCCCC1OC(=O)c1ccc(Br)cc1 (stereo unspecified) | 0.6 | 2.1 | 5.2 | 1.4 | -1.2 | -5.0 | 26.6 | 1.6
CC(=O)N1CCN(c2ccc(NC(=O)c3ccc(C)cc3)cc2)CC1 | -1.3 | -5.6 | -10.9 | 0.6 | 0.6 | -1.1 | 4.2 | -5.6
CCOC1=C/C(=C/c2c(N)n3oc(C)cc3nc2=O)C=CC1=O | 9.6 | . | 0.7 | -0.2 | -5.2 | -7.5 | -5.3 | .
O=C(c1cc(Cl)nc2ccccc12)N(Cc1nnc(-c2ccc(Cl)cc2)o1)C1CC1 | 6.8 | 1.7 | 18.0 | 1.9 | -5.8 | 3.2 | 36.0 | 6.3
CCc1cc2ccc(C)c(C)c2nc1SCC(=O)NNC(=O)c1ccco1 | 6.0 | 2.9 | -2.4 | 0.4 | 3.3 | -0.4 | 2.4 | -5.5
COc1cccc(Nc2nc(N)nc(C(F)(F)F)n2)c1 | 1.7 | -4.3 | 10.3 | -0.7 | -1.2 | 0.8 | 12.9 | 7.0
O=C(COC(=O)c1ccc2c(c1)OCO2)Nc1ncc(Cl)cc1Cl | 1.4 | ? | 17.5 | 0.1 | 6.3 | -3.3 | 0.5 | -3.7
Cc1cccc(N2C(=O)CC(N3CCOCC3)C2=O)c1 (stereo unspecified) | -3.3 | 4.2 | 1.5 | 0.3 | 1.7 | 3.7 | -10.4 | 5.2
COc1ccc(NC(=O)Cn2nc([N+](=O)[O-])c(Cl)c2C)cc1OC | 1.7 | -3.6 | -1.9 | 1.3 | -1.4 | 3.3 | 29.7 | 1.8
COc1ccccc1NC(=O)COC(=O)/C=C/c1ccc2c(c1)OCO2 | 1.6 | 2.6 | 18.2 | 0.5 | 14.2* | -4.7 | -16.6 | 0.1
O=C(CCCN1C(=O)/C(=C/c2ccccc2Cl)SC1=S)Nc1ccccn1 | 4.5 | 1.8 | 24.8 | -0.2 | 0.9 | -18.1 | 7.6 | -3.5
CC(C)c1ccc2oc(=O)cc(CN3CCN(c4ccccc4)CC3)c2c1 | 0.6 | 4.1 | 19.0 | 0.3 | 0.0 | 6.6 | 13.9 | 4.2
N=c1n(CCO)c2ccccc2n1CCOc1ccccc1 | 4.8 | 4.1 | 7.3 | 0.4 | -4.4 | -7.4 | 12.0 | 15.3
Cc1ccc(NC(=O)C2=CN3CCS(=O)(=O)N=C3C=C2)cc1 | 0.4 | . | . | 0.4 | -1.4 | 2.6 | . | 3.1
CCOc1ncccc1C(=O)OCC(=O)Nc1ccc2c(c1)CCC2 | -2.4 | . | . | -0.9 | 0.9 | 5.8 | . | 2.1
CCS(=O)(=O)c1ccc(NC(=O)c2ccccc2Cl)c(O)c1 | 2.8 | 4.7 | 0.4 | 0.2 | -0.8 | -4.5 | -9.7 | 1.2
O=C(c1cc2cc(Cl)cc(Cl)c2oc1=O)N1CCOCC1 | -4.7 | -2.1 | -9.4 | -0.3 | -0.2 | -6.4 | -8.3 | -8.7
Cc1ccc(NC(=O)CN(C)CC(=O)Nc2ccccc2-c2ccccc2)cc1 | 0.8 | -2.9 | -31.3 | 0.8 | -1.7 | 2.5 | -8.3 | 3.2
O=[N+]([O-])c1cccc(-c2ccc(/C=N/NC(=S)NCc3ccco3)o2)c1 | . | 1.0 | -1.2 | 0.2 | -1.7 | 16.8 | 30.1 | 8.7
CCOc1cc(C2/C(=C(/O)c3ccc(S(=O)(=O)N4CCCCC4)cc3)C(=O)C(=O)N2CCOC)ccc1O (stereo unspecified) | 10.5 | 2.1 | 4.0 | 0.6 | -0.6 | -9.4 | -7.2 | 1.4
COC(=O)C1C/C(=N\NS(=O)(=O)c2ccc(C)cc2)c2ccccc2C1 (stereo unspecified) | . | 4.1 | 0.2 | -0.3 | -3.8 | -5.8 | -7.4 | 10.3
Cc1ccc(C)c(OCCn2cc(/C=C(\C#N)C(=O)NCc3cccs3)c3ccccc32)c1 | -5.0 | 9.5 | -7.6 | -0.2 | 0.0 | 7.9 | 11.4 | 6.8
CC(=O)c1ccc(N2CCN(C(=O)Cn3c(=S)[nH]c4ncccc4c3=O)CC2)cc1 | 7.2 | 3.4 | 17.0 | 0.1 | -3.3 | -0.5 | 14.6 | .
CC(C)C(=O)Nc1cc(C(F)(F)F)ccc1N1CCOCC1 | 0.5 | 1.1 | -6.1 | 0.9 | -0.6 | 2.9 | -17.1 | -3.2
COC(=O)[C@@H]1C[C@@]2(Br)c3ccccc3N(S(=O)(=O)c3ccccc3)[C@H]2N1C(=O)OC | 2.6 | -1.6 | -1.1 | 1.3 | -2.9 | -3.8 | 0.4 | 1.5
Cc1ccccc1NC(=O)C1CCCN1C(=O)NC1CCCCC1 (stereo unspecified) | 4.1 | 1.3 | -0.6 | -1.0 | 1.4 | . | -8.9 | -3.4
CCCCCC(=O)NNC(=O)c1ccc(F)cc1 | -0.2 | ? | -2.9 | -0.1 | 0.0 | -0.5 | -1.2 | -0.6
O=C(CCNS(=O)(=O)c1ccccc1C(F)(F)F)NCc1ccc2c(c1)OCO2 | 3.0 | 7.3 | -8.9 | -2.2 | 3.2 | -6.4 | -34.2 | -0.8
COc1ccc(-c2nc(C3CCCCC3)no2)cc1OC | 4.8 | -3.2 | 22.8 | -1.2 | -2.3 | 0.1 | -3.0 | 2.1
CN(C)c1nc(N(C)C)nc(N(C#N)CCOc2ccccc2)n1 | 1.9 | -4.8 | 7.5 | 0.4 | 0.2 | 3.4 | . | 5.9
CCCn1c(NC(=O)c2ccco2)nc2ccccc21 | 3.2 | -12.8 | 22.0 | 0.3 | -0.6 | 2.9 | -3.2 | -13.8
NNC(=O)Cn1c(-c2ccccc2)cc2ccccc21 | 0.6 | -1.4 | 14.8 | -0.1 | -19.3 | 4.4 | -8.8 | -7.8
O=[N+]([O-])c1ccc(Cl)c(CN2CCC(O)CC2)c1 | 0.2 | -2.8 | -1.1 | 0.5 | -0.3 | 7.2 | -15.5 | 0.5
Cc1ccc(C(=O)NCCNC(=O)c2ccc(F)cc2)cn1 | . | ? | -1.0 | 0.5 | 0.3 | -6.3 | -4.0 | 2.2
COc1cc(NC(=O)Cn2cnc(S(=O)(=O)N3CCCCC3)c2)cc(OC)c1OC | 1.6 | 0.0 | 2.4 | 0.4 | 5.1 | -0.4 | -0.6 | 2.9
CN(C)S(=O)(=O)c1ccc(C(=O)Nc2nc(-c3ccccc3)c(C(=O)c3ccccc3)s2)cc1 | 0.7 | 2.9 | -3.9 | -0.3 | . | -13.8 | 6.4 | 6.9
COC(=O)c1ccc(C(=O)OC)c(NC(=O)COC(=O)c2ccc(OC)c(OC)c2OC)c1 | 4.8 | -0.3 | -8.2 | 0.0 | -2.9 | . | -22.3 | -0.8
Cc1cccc(C)c1N(CC(O)Cn1c2ccccc2c2ccccc21)S(C)(=O)=O (stereo unspecified) | 4.9 | ? | 15.5 | -0.5 | -0.5 | 5.1 | 22.1 | 3.2
O=C(NCCc1nc(-c2ccccc2Cl)no1)c1ccccc1 | 2.0 | ? | -1.9 | 0.0 | 2.0 | -0.2 | -13.0 | -2.6
Cc1ccc(-c2nc(CS(=O)CC(=O)NC3CC3)c(C)o2)cc1 (stereo unspecified) | 3.5 | -0.9 | -2.4 | 0.8 | 13.3 | -4.4 | -4.3 | -1.7
Cc1cc(SCC(=O)Nc2ccc(O)cc2)n2nc(C)c(-c3ccccc3)c2n1 | 0.9 | 1.8 | 3.7 | 1.8 | -0.9 | 9.8 | -6.2 | -2.5
Cc1ccc(N(C(C)C(=O)Nc2cccc(N(C)S(C)(=O)=O)c2)S(C)(=O)=O)cc1 (stereo unspecified) | 1.1 | 4.3 | -30.2 | 0.4 | -1.1 | -8.3 | -6.6 | 1.3
Cc1ccc(C)c(S(=O)(=O)N2CCN(c3ncnc4sccc34)CC2)c1 | -3.4 | . | . | -2.1 | 0.9 | 112.2* | . | 5.6
COc1ccc(S(=O)(=O)N2CCC(C(=O)Nc3ccccc3C)CC2)c2cccnc12 | -0.5 | -1.1 | 0.6 | 1.0 | -0.8 | 1.8 | -5.7 | -16.2
COc1ccccc1/C=C/C(=O)OCC(=O)NC1CCS(=O)(=O)C1 (stereo unspecified) | -35.0 | . | . | -0.1 | 1.0 | -2.4 | . | 13.9
CCn1cc(C(=O)OCc2cccc(Br)c2)c(=O)c2ccc(C)nc21 | -1.6 | 3.2 | ? | 0.6 | -0.7 | -4.1 | -3.5 | 2.4
CC(C)(C)C(=O)N1CCN(C(=O)c2ccco2)CC1 | -1.5 | 0.2 | -13.0 | 0.4 | 0.7 | 1.3 | 10.5 | 2.2
O=S(=O)(NC1CC1)c1cccc(S(=O)(=O)N2CCCC2)c1 | 5.6 | 4.5 | -5.4 | -0.6 | -3.6 | -3.3 | 3.1 | 3.7
Cn1c(CNC(=O)CNC(=O)c2ccccc2F)cc(=O)n(C)c1=O | 1.1 | -0.8 | . | 0.4 | -3.8 | -2.1 | -9.7 | -1.4
CCOC(=O)N1CCN(S(=O)(=O)c2cc(Br)cc3c2N(C(=O)C2CC2)CC3)CC1 | 4.4 | 6.2 | 0.3 | 1.9 | -0.3 | -2.0 | 7.5 | 0.9
Cn1c(CCNC(=O)c2ccccc2)nc2cc(NC(=O)C3CCCCC3)ccc21 | 2.0 | 4.9 | -6.5 | -0.4 | -1.3 | -2.3 | -9.2 | -6.4

From PubChem BioAssay
